# Compound activity from PubChem.
# HPGD block – blocks human HPGD enzyme activity | 150,000 compounds, 4.3% hits | purified HPGD, NADH fluorescence kinetic, PGE2 substrate | Potency, µM, for inactives: at the top dose activity change, negative = inhibition, actives largely listed as inhibitors | P15428; active = well fitted inhibition curve with a large enough effect (not every such curve was filed as active); inconclusive = small, poorly fitted or top-dose-only effect, or another doubt; inactive = no such curve, though single readings can be large or run the other way;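 note: top concentration of the series not given in the record; plate controls included wells without enzyme; inactives centre near -10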
# Target sequence (P15428 whole entry, looked up): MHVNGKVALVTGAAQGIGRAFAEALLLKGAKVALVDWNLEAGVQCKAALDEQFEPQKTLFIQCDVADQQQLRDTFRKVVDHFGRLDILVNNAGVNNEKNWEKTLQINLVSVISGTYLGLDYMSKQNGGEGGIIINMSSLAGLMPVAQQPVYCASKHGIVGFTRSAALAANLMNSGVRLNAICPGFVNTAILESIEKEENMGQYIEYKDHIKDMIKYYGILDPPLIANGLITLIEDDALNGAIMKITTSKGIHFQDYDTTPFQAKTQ
#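 NADH formation kinetics: reaction with 30 uM PGE2 and 1 mM NAD+ (final), 20 nM enzyme, Tris-HCl pH 8 with Tween 20, after 15 min compound preincubation at room temperature. Fluorescence change, last versus first of five reads.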
# * = called active by the depositor; ? = inconclusive; & = joins results of further samples; [ ] = dose if it differs, or a comment. % is set by controls: 0 for no effect and ±100 for the full control effect; potency is the fitted concentration of half-maximal effect. Some of the compounds tested; count on the stated rates, not on these rows.
HPGD block	smiles
-12%	COc1ccc(C2C(C(=O)NCc3ccccc3)=C(C)Nc3ncnn32)cc1OC (stereo not given)
-9%	COC(=O)c1ccc(=O)n(-c2ccc(OC)cc2)c1
-28%	CCN(CC)CCNC(=O)c1cc2c(=O)n(C)c3ccccc3c2n1C
-26%	CCOc1ccc(/C=N/NC(=O)Cc2csc(Nc3cccc(C(F)(F)F)c3)n2)c(OCC)c1
-17%	CCn1nnc(NC(=O)c2sc3ccccc3c2Cl)n1
?	Cc1cc(=O)oc2cc(OCC(=O)OCC(=O)Nc3ccc4ccccc4c3)ccc12
-17%	O=C(COc1ccc(/C=N/NC(=O)c2ccccc2)cc1)Nc1ccc([N+](=O)[O-])cc1
?	COc1ccc(-c2c3c(=O)n(C)c(=O)n(C)c3cn2NC(C)=O)cc1
-2%	CCN1CCN(C(CNS(=O)(=O)c2ccc(OC)cc2)c2cccnc2)CC1 (stereo not given)
4%	OCc1ccccc1O[C@@H]1O[C@H](CO)[C@@H](O)[C@H](O)[C@H]1O
-4%	COc1ccc(OCC(=O)N(C)Cc2ccccc2)cc1
?	COC(=O)Oc1ccccc1C(=O)O
-12%	COc1ccc(CNC(=O)c2ccc(CNc3c(NC4CCCCC4)c(=O)c3=O)cc2)cc1
32µM*	Cc1occc1C(=O)NC(C)C(C)(C)C (stereo not given)
?	CCSc1nnc(NC(=O)c2ccc(Br)s2)s1
-11%	Cc1ccc(CSCC(=O)N/N=C/c2sccc2C)cc1
0%	O=C(CNc1n[nH]c(=O)[nH]c1=O)N/N=C/c1cccnc1
-12%	COc1cccc(C=Nc2cc(C)cc(C)c2)c1O
?	O=C1C2C3C=CC(C3)C2C(=O)N1c1ccc(-c2nc3ccccc3o2)cc1 (stereo not given)
-1%	CC(C)Cn1c(N)c(C(=O)CSc2nc3ccccc3n2C)c(=O)n(C)c1=O
2µM*	S=c1[nH]nc(-c2ccco2)n1/N=C/c1cccc(Cl)c1Cl
-5%	O=C(CSc1nc2ccccc2s1)N1c2ccccc2Sc2ccc(Cl)cc21
-4%	CCCCOCCCNC(=O)N[C@@H](CCSC)C(=O)OC
-9%	CSc1nccc(Oc2ccc(C#N)cc2)n1

# Retrieved by structure from the entries so far (five):
HPGD block	smiles
32µM*	Cc1occc1C(=O)NC(C)C(C)(C)C (stereo not given)
-11%	Cc1ccc(CSCC(=O)N/N=C/c2sccc2C)cc1
0%	O=C(CNc1n[nH]c(=O)[nH]c1=O)N/N=C/c1cccnc1
-4%	CCCCOCCCNC(=O)N[C@@H](CCSC)C(=O)OC
?	O=C1C2C3C=CC(C3)C2C(=O)N1c1ccc(-c2nc3ccccc3o2)cc1 (stereo not given)

# Additional results
HPGD block	smiles
-5%	CCOC(=O)N(NC(=O)C(O)(c1ccccc1)c1ccccc1)c1ccccc1
-1%	CCOc1cccc2sc(NC(=O)CC)nc12
-11%	COCCNC(=O)c1onc(CSc2cc(C)cc(C)c2)c1C(=O)O
-15%	CC(=O)c1ccc(N2CCN(C(=O)c3ccco3)C(C)C2)c(F)c1 (stereo not given)
-14%	CC(C)(C)c1nc(CN2CCOCC2)ccc1O
-24%	O=C(c1ccc(CSc2nc3ccncc3[nH]2)cc1)N1CCN(c2cccc(Cl)c2)CC1
3%	CC[C@H](C)N(C)C(=O)c1cc2ccccc2c(-c2ccccc2Cl)n1
-14%	Cc1ccccc1-c1nnc(NC(=O)CSc2nc3ccccc3s2)s1
?	Cc1ccccc1N(CC(=O)N/N=C/c1ccc(N(C)C)cc1)C(=O)c1ccccc1
-18%	COC(=O)Cn1c(=NC(=O)C(C)(C)C)sc2c(C)cc(C)cc21
-8%	CCc1ccc2oc(=O)cc(CN3CCC(C)CC3)c2c1
16µM*	CCOC(=O)c1ccc(N=Cc2nc(-c3ccccc3)oc2OC(C)=O)cc1
-27%	CCOC(=O)N1CCN(C(=O)c2cnn3ccccc23)CC1
-9%	CN1CCN(Cc2nc3cccc4c3c([n+]2[O-])-c2ccccc2-4)CC1
-24%	CCOC(=O)c1c(C2COc3ccccc3O2)csc1N (stereo not given)
32µM*	COc1ccc(OC)c(N(CC(=O)Nc2ccc3c(c2)OCO3)S(=O)(=O)c2ccccc2)c1
-12%	COC(=O)C1=C(C)C(c2ccc(OC)cc2)NC(=S)N1 (stereo not given)
-5%	CC(=O)c1cnc2c(-c3ccc(Cl)cc3)cnn2c1C
-6%	O=C(CSc1ccc(Cl)cc1Cl)N1CCC(c2nc3ccccc3s2)CC1
-2%	Cn1c(=O)cc(OCC(=O)N2CCC(N3CCCCC3)CC2)c2ccccc21
-4%	FC(F)(F)c1cccc(OCCOCCn2cncn2)c1
?	COc1ccccc1-c1cc2nc(C)c(CCC(=O)NCc3ccco3)c(C)n2n1
5%	O=S1(=O)N=C(N2CCN(Cc3ccc4c(c3)OCO4)CC2)c2ccccc21
3%	CC1CCN(S(=O)(=O)c2ccc(S(=O)(=O)N3CCN4CCCC4C3)cc2)CC1 (stereo not given)
?	Cc1ccc(-c2nc(CN(C)C)cc(CN(C)C)c2O)cc1
-12%	CCOC(=O)C1=C(C)NC(=O)NC1c1cc2c(cc1Br)OCO2 (stereo not given)
-13%	CCOC(=O)c1c(C)[nH]c(O)c1C=Nc1ccc(C(F)(F)F)cc1
-6%	Cc1ccc(NC(=O)c2ccc(COc3ccc4c(c3)CCC4)cc2)c(C)c1
?	Cc1ccc(C(=O)N/N=C/c2nc3ccccc3n2C)cc1
-11%	C(=N\c1nc2ccccc2n1Cc1ccccc1)/c1cccs1
-5%	O=C(c1ccc(CS(=O)(=O)c2c(Cl)cccc2Cl)o1)N1CCCC1
-12%	O=C1OCCC1Sc1nnnn1-c1ccccc1 (stereo not given)
-9%	CCOc1ccccc1C1CC(c2ccc(Cl)cc2)Nc2nc(N)nn21 (stereo not given)
-4%	Cc1ccnc(NS(=O)(=O)c2ccc(NC(=O)C3CCCCC3C(=O)O)cc2)n1 (stereo not given)
-18%	Cc1ccc2nc(SCCC(=O)O)cc(C)c2c1
-4%	CC(C)C(NC(=O)c1ccccc1)C(=O)NC1=NCCS1 (stereo not given)
-24%	Cc1[nH]n(-c2ccccc2)c(=O)c1/C=N/n1c(C)nc2ccccc2c1=O
-7%	CCOC(=O)C1=C(C)N(C)C(=O)NC1c1cccc(O)c1 (stereo not given)
-3%	CN(C(=O)COC(=O)C(Cc1ccccc1)NC(=O)c1ccccc1)c1ccccc1 (stereo not given)
?	CC(C)CNC(=S)Nc1ccc(S(N)(=O)=O)cc1
-1%	CCOc1ccc(N(CC(=O)NC2CCCC2)C(=O)CSc2nnc(COc3ccccc3)o2)cc1
-8%	COc1cc(C)c(C(C)C)cc1S(=O)(=O)n1cnc(C)c1
-25%	CN(c1ccccc1)S(=O)(=O)c1ccc(Cl)c(C(=O)Nc2nc3ccccc3[nH]2)c1
?	CCOC(=O)C1CCN(c2ncnc3c2oc2ccc(Br)cc23)CC1
?	CCn1c2c(c3cc(C(=O)O)ccc31)CCCC2=O
-6%	CN(C(=O)c1cccnc1)c1nc(-c2ccccc2)cs1
-23%	CCOC(=O)c1c(C)nc2sc3c(c2c1-c1ccc(OC)cc1)NC(c1ccc(OC)cc1)NC3=O (stereo not given)
1%	COCCNc1nc2c(c(=O)n(C)c(=O)n2C)n1Cc1cccc(C)c1

# Reformatted with each value named: part of the list above.
CCOC(=O)N(NC(=O)C(O)(c1ccccc1)c1ccccc1)c1ccccc1
  HPGD block: -5%

CCOc1cccc2sc(NC(=O)CC)nc12
  HPGD block: -1%

COCCNC(=O)c1onc(CSc2cc(C)cc(C)c2)c1C(=O)O
  HPGD block: -11%

CC(=O)c1ccc(N2CCN(C(=O)c3ccco3)C(C)C2)c(F)c1 (stereo not given)
  HPGD block: -15%

# (list continues)
HPGD block	smiles
-9%	CC(C)CCNC(=O)NC(=O)Cn1cc(C(F)(F)F)ccc1=O
-7%	Cc1ccc(CSc2nnc(Cn3c(=O)sc4ccccc43)n2C)cc1
-18%	C[C@H](NC(=O)Cn1cncn1)c1ccccc1
-21%	CCN(CC)c1ccc(NC(=O)COc2ccccc2C#N)cc1S(=O)(=O)Nc1ccc(OC)cc1
?	CS(=O)(=O)Nc1ccccc1C(=O)Nc1cc(Cl)cc(Cl)c1
-15%	COc1ccc2c(c1)C(=O)C(=O)N2
-25%	Cc1cc(C)c(C)c(S(=O)(=O)N2CCC(C(=O)OCC(=O)N3c4ccccc4NC(=O)C3(C)C)CC2)c1C
18µM*	CCN(CC)c1ccc(NC(=O)C2CC3CCC2C3)cc1 (stereo not given)
-30%	CN(c1ccccc1)S(=O)(=O)c1cccc(NC(=O)CC(C)(C)C)c1
?	CC(=O)c1sc2nc(SCC(=O)N3CCCCC3)[nH]c(=O)c2c1C
4%	O=C(NCC(=O)N(c1ccccc1)C(C(=O)NCC1CCCO1)c1ccccc1)c1ccco1 (stereo not given)
-10%	CCn1c(SC(C)C(=O)O)nnc1-c1cccnc1 (stereo not given)
-1%	Nc1c(C(=O)c2ccc(Cl)cc2)sc2nc3c(cc12)CCC3
-4%	COc1cc(C2C(C#N)=C(N)Oc3cc(C)oc(=O)c32)ccc1OC(=O)N1CCOCC1 (stereo not given)
-14%	Cc1nn(Cc2ccccc2)c(C)c1NC(=O)c1cc(-c2ccco2)on1
?	O=C1CC(c2ccco2)Cc2nc(N3CCc4ccccc4C3)ncc21 (stereo not given)
-5%	COc1ccc(CC(=O)NCc2cccs2)cc1OC
-13%	Cn1c(C(=O)NCCc2c[nH]c3ccccc23)cc2sccc21
-10%	CCNC(=O)c1oc2c(c1C)C(=O)CC(C)(C)C2
-4%	O=C(c1cnc2n(c1=O)CCS2)N(C1CCCCC1)C1CCCCC1
-16%	COC(=O)c1ccccc1NC(=O)C1CC=CCC1C(=O)O (stereo not given)
?	CCN(CC)CCN1C(=O)c2ccccc2NC1c1ccc(F)cc1 (stereo not given)
-10%	Cc1csc(SCc2ccccc2C(=O)O)n1
-16%	O=C1c2ccccc2C(=O)c2c1oc(C(F)(F)F)c2C(=O)c1ccccc1
-1%	CC(C)NS(=O)(=O)c1ccc(OCC(=O)N(C)Cc2ccccc2)cc1
-24%&-8%	C=C(CC1([C@@H](NP(=O)(c2ccccc2)c2ccccc2)[C@H]2C[C@@H]2CCCC)CC1)c1ccccc1
-22%	O=C(NC(=S)Nc1ccc(Cl)cn1)c1cccs1
14µM*	Clc1ccc(CSc2nnc(-c3cccnc3)n2Cc2ccco2)c(Cl)c1
121%[activator]	CC(Oc1ccc2ccc(=O)oc2c1)C(=O)c1ccccc1 (stereo not given)
-1%	Cc1ccc2c(c1)NC(=O)c1cccnc1N2
-27%	CS(=O)(=O)C1=NSC2=NC(=O)/C(=C\c3ccc(-c4ccccc4)o3)C(=N)N21
-7%	Cn1c(Cn2c(=O)sc3ccccc32)nnc1SCC(=O)N1CCCCCC1
?	Cc1ccc(C(=O)O/N=C/c2c(N3CCOCC3)n(C)c3ccccc23)cc1
0%	Cc1ccc(-c2nnn(CC(=O)N(Cc3ccccc3)C(C(=O)NC(C)(C)C)c3ccncc3)n2)o1 (stereo not given)
?	Cn1c(NCCCO)nc2c(c1=O)C1(CCCCC1)Cc1ccccc1-2
-5%	O=C(CN(C(=O)CNC(=O)c1ccco1)c1ccc(Cl)c(Cl)c1)NC1CCCCC1

# Continued; the last 2 above are carried over.
HPGD block	smiles
?	Cn1c(NCCCO)nc2c(c1=O)C1(CCCCC1)Cc1ccccc1-2
-5%	O=C(CN(C(=O)CNC(=O)c1ccco1)c1ccc(Cl)c(Cl)c1)NC1CCCCC1
-6%	Cn1nccc1C(=O)NC(=S)Nc1sc2c(c1C#N)CCCCC2
-19%	CCOc1ccc(C2=Nn3cnnc3SC2)cc1
?	O=C(Nc1ccc(NC(=O)c2sc3ccccc3c2Cl)cc1Cl)c1ccco1
22µM*	CCC(=O)c1ccc(OCc2ccc(C(=O)OC)o2)c(OC)c1
0%	C=CCc1ccc(OCC(O)COCC)c(OC)c1 (stereo not given)
-3%	CCN1CCN(C(=S)Nc2ccccc2Cl)CC1
-7%	CSc1ccccc1C(=O)Nc1ncc(C)s1
-4%	CCC(C)(C(=O)NC1CCCCC1)N(Cc1cccs1)C(=O)CC1NC(=O)NC1=O (stereo not given)
-6%	CCOC(=O)c1cccc(NC(=O)c2cc3sccc3n2C)c1
-15%	O=C(NCC1CCCO1)c1onc(CSc2ccc(F)cc2)c1C(=O)O (stereo not given)
-14%	CCSc1nnc([C@H](Cc2c[nH]c3ccccc23)NC(=O)OC(C)(C)C)o1
-14%	CC1CC(=S)Nc2ccccc2N1C(=O)Nc1ccccc1 (stereo not given)
-6%	O=[N+]([O-])c1cccnc1N1CCOCC1
-4%	CCN1CCN(CC(=O)NC2CCCC2)C(=O)C1=O
?	N#Cc1c(N2CCN(C(=O)c3ccccc3)CC2)nc(-c2ccccc2)c2c1CCCC2
-10%	CCOc1ccccc1OCCCC(=O)N1CCN(S(=O)(=O)c2cccc(F)c2)CC1
?	N=c1c2c(-c3ccccc3)c(-c3ccccc3)oc2ncn1Cc1ccco1
-2%	Cn1c(SCc2c(Cl)cccc2Cl)nc(C(F)(F)F)cc1=O
-25%	CCCCOC(=O)CCc1nc2ccccc2[nH]c1=O
?	CCOC(=O)c1[nH]c2ccc(OC)cc2c1NC(=O)CCN1CCCC(C)C1 (stereo not given)
-19%	O=C(CSc1nc(-c2ccccc2Cl)ns1)c1ccc(Cl)cc1
?	Clc1ccc(C2=NNC(=NCC3CCCO3)SC2)cc1 (stereo not given)
-17%	CC(C)Cc1cc(C(=O)Nc2ccc(F)cc2F)no1
-4%	Cc1ccc(SCCNC(=O)/C=C/c2ccc([N+](=O)[O-])cc2)cc1
